Menin MLL FP FL = inhibitors of human menin-MLL interaction, wild-type MLL peptide; Fluorescence polarization, fluorescein-MLL peptide displacement from menin; FP activity change, % at 61.4 µM; 290,000 tested, under 10 active; AID 1766; inconclusive = falling polarisation curve, or a change in total fluorescence; inactive = total fluorescence flat and polarisation flat or rising; no compound was filed as active; the % refers to the polarisation; negative = inhibition;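 note: % of control where 0% means no effect; inhibitors lower the polarisation; unlabelled MLL peptide was the positive control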
ClpP mod = qHTS Assay for Activators of ClpP. Potency, µM (top dose mostly 57.5 µM), for inactives: at the top dose activity change, negative = active. 340,000 tested, 1.9% active. purified B. subtilis ClpP, FRET peptide cleavage, 20 min. ATP-dependent Clp protease proteolytic subunit (Bacillus subtilis (strain 168)), P80244; active = well fitted falling curve with a large enough effect; inconclusive = small, poorly fitted or top-dose-only effect; inactive = no such curve, though single readings can be large or run the other way; note: potency is the fitted concentration of half-maximal effect; the source files actives as falling curves though it sought activators and does not explain the sign; nearly all actives have a fitted effect of over 65% in size; many hits overshoot -100%
Target sequence (P80244 whole entry, looked up): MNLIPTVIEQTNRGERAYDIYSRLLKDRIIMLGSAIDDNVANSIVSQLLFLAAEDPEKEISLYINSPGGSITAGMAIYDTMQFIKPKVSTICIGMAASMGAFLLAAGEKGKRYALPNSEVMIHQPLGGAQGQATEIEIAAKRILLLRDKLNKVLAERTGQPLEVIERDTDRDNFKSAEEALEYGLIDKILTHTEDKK
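Purified B. subtilis ClpP, 10 microg/mL final in Tris/HCl pH8 with KCl, BSA, glycerol and Tween-20, cleaved an Abz/nitrotyrosine-quenched decapeptide. Fluorescence (ex 320, em 430) was read at 0 and 20 min at room temperature. Delta was normalized to 5.8 microM ADEP and DMSO/no-enzyme controls.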
TRPV1 PAM = human TRPV1 potentiation | Q8NER1 | TRPV1-expressing cells, Fluo-8 calcium influx, capsaicin EC20 potentiation; host cell line not named in the record; control for the full effect not named in the record | potentiation, % at 8.33 µM | 320,000 tested, 0.02% active | AID 540277; active means potentiation above 80%; inconclusive means 30% to 80%; inactive means below 30%; note: 0% is about no effect
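Cells expressing TRPV1 were dye-loaded with Fluo-8 and read kinetically: 10 s baseline, 3 min after compound (agonist portion), then 2 min after EC20 capsaicin (allosteric enhancer portion). Calcium-bound dye fluorescence at 480/520 nm.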
gsp antagonist = antagonizes gsp, the McCune-Albright syndrome mutation; gsp-mutant cells, cAMP HTRF, 30 min; control for the full effect not named in the record; Potency, µM (doses to about 76.9 µM), for the others: top-dose activity change, negative = inhibition, hits mostly inhibitors; 340,000 tested, 0.4% active; active = falling curve of any shape with a large fitted effect; inconclusive = falling curve, mostly with a smaller effect; inactive = flat or rising curve; cell line not stated here;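 note: intracellular cAMP measured with PDE inhibitor Ro 20-1724 present during compound exposure; potency is the fitted concentration of half-maximal effect; % is set by controls: 0 for no effect and ±100 for the full control effect; nearly all actives have a fitted effect of over 65% in size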
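Cells in G418 medium, seeded 16-24 h, 37C; buffer exchange to DPBS + 1 mM CaCl2, 0.5 mM MgCl2, 0.05% BSA; cpds in DMSO + […] (300 uM stock), 30 min 37C; HTRF cAMP detection.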
TRPML1 inh = inhibitors of human TRPML1 channel | Q9GZU1 | TRPML1-inducible cells, Ca2+ dye fluorescence, FDSS; hits give low values; inhibition of EC80 agonist-evoked calcium signal | activity change, negative = inhibition, % (concentration not given with the values) | 390,000 tested, 0.02% active; in the data active means activity change below about -50%; inconclusive means about -30% to -50%; inactive means above about -30%;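 note: stimulus is agonist 54-4 at its EC80 concentration; % is set by controls: 0 for no effect and ±100 for the full control effect; compound concentration not given in the record; the text of the record puts the active cut at -80%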
Target sequence (Q9GZU1 whole entry, looked up): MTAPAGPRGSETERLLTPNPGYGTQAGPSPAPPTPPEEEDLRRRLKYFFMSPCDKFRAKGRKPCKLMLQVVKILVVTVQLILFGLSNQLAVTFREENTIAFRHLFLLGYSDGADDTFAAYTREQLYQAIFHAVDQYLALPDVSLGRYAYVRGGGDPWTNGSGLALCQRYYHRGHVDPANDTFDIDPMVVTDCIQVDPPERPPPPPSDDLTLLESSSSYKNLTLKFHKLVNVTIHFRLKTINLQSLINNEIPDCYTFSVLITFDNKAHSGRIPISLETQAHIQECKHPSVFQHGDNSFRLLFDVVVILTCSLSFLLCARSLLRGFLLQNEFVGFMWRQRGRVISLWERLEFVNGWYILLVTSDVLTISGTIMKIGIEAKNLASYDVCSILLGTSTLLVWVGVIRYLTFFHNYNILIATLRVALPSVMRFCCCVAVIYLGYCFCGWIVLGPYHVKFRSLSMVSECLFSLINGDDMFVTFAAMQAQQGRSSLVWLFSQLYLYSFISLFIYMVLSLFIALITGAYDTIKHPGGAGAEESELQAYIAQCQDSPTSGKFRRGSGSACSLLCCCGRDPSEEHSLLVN
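Tet-induced TRPML1-DL cells loaded with Ca8 no-wash calcium dye were read kinetically on FDSS. Compound addition was followed by EC80 agonist 54-4 (4 uM final); inhibition was read over 110 s.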
gsp agonist = agonists of gsp mutant (McCune-Albright syndrome). gsp mutant cells, cAMP HTRF, 30 min; control for the full effect not named in the record. Potency, µM (titrated, usually from 76.9 µM), without a hit: at the highest dose activation (cAMP increase), usual class: activators. AID 624287. 340,000 tested, 0.13% active; active = well fitted activation curve with a large enough effect; inconclusive = small, poorly fitted or top-dose-only effect, or another doubt; inactive = no such curve, though single readings can be large or run the other way; cell line not stated here;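 note: phosphodiesterase inhibitor Ro 20-1724 added with compounds to block cAMP breakdown; potency is the fitted concentration of half-maximal effect; nearly all actives have a fitted effect of over 60% in size; about a fifth of the inactives were tested at one dose only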
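Cells stably selected in G418 were plated at 2000/well, grown 16-24 hr, then given compounds in DMSO with the PDE inhibitor […] (300 uM solution added) for 30 min at 37C; cAMP was read by HTRF.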
Sfp PPTase inh = Sfp phosphopantetheinyl transferase inhibition. Q9F4F7. Biochemical Sfp PPTase activity, qHTS. Potency, µM, for the others: max response, negative = inhibition, usual class: inhibitors. 310,000 tested, 3.5% active; active = well fitted inhibition curve with a large enough effect; inconclusive = small, poorly fitted or top-dose-only effect, or another doubt; inactive = no such curve, though single readings can be large or run the other way;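 note: the enzyme is Sfp with the accession as filed and its product quenches rhodamine fluorescence; potency is the fitted concentration of half-maximal effect; 0% = enzyme reaction without inhibitor and -100% = no enzyme wells; top concentration of the series not given in the record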
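Compounds were incubated with enzyme (final 15 nM) for 15 min at room temperature before substrate addition started the reaction. Fluorescence at 525 nm excitation, 598 nm emission was recorded immediately and after 30 minutes.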
Numbers without * were called inactive; ? = inconclusive; · = not tested or not shown; & = joins results of further samples; [ ] = dose if it differs, or a comment.

SMILES	Menin MLL FP FL	ClpP mod	TRPV1 PAM	gsp antagonist	TRPML1 inh	gsp agonist	Sfp PPTase inh
COc1ccc(C(=O)N2CCN(c3ccc(C)cc3C)CC2)cc1OC	3.9	-19%	1	-7%	20	6%	6%
COc1ccc2c(c1)OC[C@H]1[C@H]2N2C(=O)CN(Cc3ccc(F)cc3)C(=O)[C@@]2(C)[C@H]1c1ccccc1	·	-1.0%	-12	-17%	-11	?	·
OC(COCc1cccs1)CN1CCCCCC1 (configuration not stated)	-1.8	-3.3%	17	6%	17	-33%[inhibitor]	-8%
c1ccc2c(c1)NCCS2	12	·	0	·	-6	-5%[15.4 µM]	89µM*
COCCCNC(=O)CC1C[C@H](C(=O)N2CCOCC2)[C@@]2(C)c3[nH]c4ccc(OC)cc4c3CCN2C1=O (some centres not stated)	·	-1.8%	·	7%	0	·	·
COc1ccc(C)cc1NC(=O)NCCCCc1ccccc1	2.3	0.1%	11	-15%	-16	0%	-5%
CCC(O)(Cc1ccccn1)Cc1ccccn1	·	0.3%	·	5%	12	17%[15.4 µM]	·
CCOC(=O)C1(Cc2ccccc2)CCN(Cc2cn[nH]c2-c2ccccc2)CC1	-4.8	1.5%	-7	4%	10	35%	-1%
O=C1CS/C(=N/N=C2C3CC4CC(C3)CC2C4)N1	1.4	0.9%	-5	10%	3	-5%	24%
CCOc1ccccc1OCC(=O)NN=C1CCCC(=O)C1	·	-5.6%	·	2%	-4	-1%[15.4 µM]	·
COc1cc(NC(=O)NC(C)(C(F)(F)F)C(F)(F)F)cc(OC)c1OC	2.1	-2.2%	-7	3%	-1	-30%	7%
O=C(N/N=C/c1cn(-c2cccs2)nc1-c1ccccc1)c1ccccc1Cl	4.8	22µM*	5	-20%	7	28%	5%
CC(C)NC(=O)C(c1ccc(F)cc1)N(C(=O)CCC(=O)Nc1ccccn1)c1cccc(F)c1 (configuration not stated)	-0.4	·	-1	3%	-10	2%	-11%
CC(C)CCNC(=O)C(c1cccs1)N(CC1CCCO1)C(=O)Cn1nnc2ccccc21 (configuration not stated)	6.7	-0.1%	-23	2%	41	?	16%
CCC(C)c1cc(S(=O)(=O)N2CCOCC2)ccc1OC (configuration not stated)	3.8	-0.9%	0	10%	-2	-25%	16%
O=C1N[C@@H](c2ccccc2)COC(=O)[C@@H](Cc2ccc(F)cc2)C/C=C\C[C@@H]1CC(=O)N(CCO)Cc1ccccc1	·	-3.1%	·	?	-8	·	·
CCCCN1C(=O)C(CC(=O)NC2CCCC2)CC(C(=O)N(C(C)C)C(C)C)=C1C (configuration not stated)	·	-1.9%	·	·	1	-6%	·
O=C(Nc1ccc2c(c1)OCO2)C1CC(=O)N(CCc2ccccc2)C1 (configuration not stated)	0.1	-2.5%	9	-21%	-12	3%[15.4 µM]	6%
COc1cc(C(=S)N2CCN(c3cccc(Cl)c3)CC2)ccc1O	2.1	·	21	-13%	-3	18%	10µM*
CC1(C)CC(=O)C2=C(C1)OC(N)=C(C#N)C2c1cc2c(cc1[N+](=O)[O-])OCO2 (configuration not stated)	?	?	2	?	22	-15%[15.4 µM]	-21%
CC(=O)C1CCC2C3CCC4=CC(=O)CCC4(C)C3(Br)C(=O)CC12C (configuration not stated)	·	1.1%	·	3%	-3	0%[15.4 µM]	·
COc1ccc(C2=CC(c3ccc(OC)c(OC)c3)n3nnnc3N2)c(OC)c1 (configuration not stated)	-0.6	-12%	-6	15%	-8	19%	-1%
O=C(CNC(=O)c1ccccc1F)NCCN1C(=O)S/C(=C\c2ccc3c(c2)OCO3)C1=O	·	-2.8%	15	-11%	0	-14%	·
COc1ccc(C)cc1NC(=O)C1CCN(S(=O)(=O)c2cccs2)CC1	6.0	0.3%	-2	-19%	-12	30%[15.4 µM]	13%
Cc1ccc(C)c(S(=O)(=O)NCc2ccncc2)c1	0.6	-2.8%	7	-30%	-7	-12%	13%
O=C(c1cccc(N2C(=O)C3C4C=CC(C4)C3C2=O)c1)N1CCN(c2ccc(F)cc2)CC1 (configuration not stated)	-2.8	0.5%	26	0%	18	-34%[inhibitor]	17%
O=C(CSc1nnc(Nc2ccccc2)s1)NC1CCCC1	·	1.2%	·	5%	0	3%	·
C/C(=N/Nc1ncc(Br)cn1)c1ccc([N+](=O)[O-])cc1	4.0	-1.7%	-6	-2%	-5	15%	14%
CCN(CC)CCN1C(=O)C(=O)/C(=C(/O)c2ccncc2)C1c1ccccc1F (configuration not stated)	2.4	17%	5	8%	-7	4%	-15%
Cc1ccc(N2CC(NS(=O)(=O)c3cccs3)CC2=O)cc1 (configuration not stated)	·	0.8%	1	0%	-7	6%	·
COC(=O)c1ccccc1NC(=O)c1sc(N)nc1C	-1.1	-1.1%	-5	-10%	7	9%	-2%
CSc1ccc(/C=N/N(C)S(=O)(=O)c2ccc(C)cc2)cc1	-7.7	·	12	-12%	-18	-21%	3%
O=C(Nc1cc(-c2ccccc2)[nH]n1)c1ccc(Cl)cc1	7.4&3.3	2.7%	-13&-25	-15%	4	6%	16%&16%
CCOC(=O)c1ccc2c(c1)n(CC)c(/C=C/N(C)c1ccccc1)[n+]2CC	4.6	-4.7%	-4	7%	15	26%	14%
Cc1cc(OC(C)C(=O)NCCCN2CCOCC2)c2c(C)c(C)c(=O)oc2c1 (configuration not stated)	-1.5	3.6%	-9	-8%	-11	?	12%
O=C(c1ccccc1)c1c2c(cc3sc4ccccc4[n+]13)-c1cccc3cccc-2c13	?	-6.6%	17	-3%	7	15%	?
O=C(NCc1nnnn1-c1ccc(Cl)cc1)C1CC(=O)N(c2ccc(F)cc2)C1 (configuration not stated)	·	-3.2%	·	·	-4	-36%[inhibitor]	·
COP(=O)(OC)c1nc(-c2cccc3ccccc23)oc1NCCc1ccccc1	8.5	-1.4%	-6	0%	3	12%[15.4 µM]	-16%
Cc1ccc(C(=O)C(C)OC(=O)c2n[nH]c(=O)c3ccccc23)cc1 (configuration not stated)	1.9	-0.3%	-13	-3%[15.4 µM]	-1	3%	8%
CCc1ccc(NC(=O)c2noc3c2CCCCC3)cc1	1.6	-16%	-17	4%	-1	-1%	17%
O=C(NCCN1CCCCCC1)c1ccc(N2CCCC2=O)cc1	0.6	-0.3%	-2	14%	-2	-4%	11%
O=C(CSc1nc2ccccc2c(=O)n1NC(=O)c1ccccc1)c1ccc(Cl)cc1	8.4	-4.2%	13	5%	-2	-3%	20%
CCOc1ccc2oc(C(=O)N3CCN(c4ccccc4OCC)CC3)c(C)c2c1	·	-3.6%	-12	-16%	1	-5%[15.4 µM]	·
Clc1ccc(OCCNCCc2ccccc2)cc1	-0.2	2.3%	-1	9%	6	-30%	11%
CC(C)(C)c1ccc(C(=O)NCCC(=O)N2CCC3(CC2)NCCc2[nH]cnc23)cc1	0.0	-0.8%	-13	6%	-2	?	11%
Cc1cccc(/C(N)=N/OC(=O)C23CC4CC(CC(C4)C2)C3)c1	-0.1	-2.2%	-4	5%	-9	11%	0%
O=C(CN1CCN(c2ncccn2)CC1)N1CCCc2c1c(=O)oc1ccc(O)cc21	-1.3	-3.1%	3	-1%	-19	0%	6%
CCOc1cc(CNCCSc2nnnn2C)cc(Br)c1OCc1ccccc1	5.5	0.1%	-1	-14%	44	-37%[inhibitor]	?
O=C(NCc1cccc(Br)c1)C1CC2Cn3c(nc4ccccc43)C2N1c1ccccc1 (configuration not stated)	·	-2.8%	·	-9%	-3	·	·
O=C(O)c1ccccc1-c1ccc(/C=C/c2cc(C(F)(F)F)[nH]c(=O)n2)o1	?	·	-22	-3%	24	?	-29%
CC(Sc1nc2ccccc2c(=O)n1CC1CCCO1)C(=O)Nc1ccc(S(N)(=O)=O)cc1 (configuration not stated)	·	-4.4%	?	-8%	47	-41%	·
CCOC(=O)c1c(-c2ccc(OC)cc2)csc1NC(=O)CSc1ccccc1	4.3	-9.9%	3	-1%	-12	-21%	-14%
O=C(NNC(=S)NCCc1ccccc1)c1ccc(Br)s1	-1.2	·	?	-17%	-5	-17%	29%
COc1ccc(CCNC(=S)N2CCN(S(=O)(=O)c3ccc(C)cc3)CC2)cc1	·	0.3%	8	5%	13	-23%[15.4 µM]	·
COc1ccccc1N1CCN(C(=O)CCCCCn2c(=O)[nH]c3ccsc3c2=O)CC1	-2.3	·	1	-8%	-15	4%	18%
CCOC(=O)c1cnc(SCC(=O)Nc2ccccc2C(=O)OC)nc1N	-0.9	-9.2%	3	-19%	2	-14%	-2%
CCCCN(CCCC)CCn1cnc2c([nH]c3ccc(OC)cc32)c1=O	-1.9	3.8%&3.6%	-4	0%	-3&-10	-18%	11%
CCN(CC)S(=O)(=O)c1cc(NC(=O)[C@@H](NC(N)=O)C(C)C)ccc1C	0.6	·	3	-22%	3	1%[15.4 µM]	9%
CCCC(=O)N/C(N)=N/c1nc(C)c2cc(C)ccc2n1	9.0	·	6	-12%	7	-18%	16%
O=C1CCCCC1Nc1ccc(Br)cc1 (configuration not stated)	·	-1.7%	·	14%	18	5%	·

Other results:
SMILES	Menin MLL FP FL	ClpP mod	TRPV1 PAM	gsp antagonist	TRPML1 inh	gsp agonist	Sfp PPTase inh
O=C(Nc1cccc(Cl)c1N1CCCCC1)c1ccc(N2CCOCC2)c([N+](=O)[O-])c1	0.8	-1.3%	-31	4%	-6	-4%	16%
CN(C)/C=C(\C#N)C(=O)N/N=C/c1ccc(F)cc1	-2.1	·	0	-11%	19	25%[15.4 µM]	1%
CCN1CCc2c(sc(NC(=O)c3ccc(S(=O)(=O)N4CCCCCC4)cc3)c2C(=O)NC)C1	·	-8.6%	-7	-4%	12	1%[15.4 µM]	-7%
O=C(COC(=O)c1cc(Cl)cc(Cl)c1)NCc1ccco1	·	-0.7%	·	-1%	19	0%	·
Nc1ccc(C23CC4CC(CC(C4)C2)C3)cc1	2.9	-1.6%	4	2%	-15	12%[15.4 µM]	3%
COc1ccc(SCC(CC(C)C)N2CCN(CCc3ccccc3)CCC2=O)cc1 (configuration not stated)	0.8	·	·	·	-2	·	?

Screening data: PubChem, National Center for Advancing Translational Sciences (NCATS)
